eIF4H FP inh – inhibitors of RNA binding by human eIF4H; Q15056; inhibition, % at 35 µM; AID 2012; eIF4H fluorescence polarization binding assay; 290,000 compounds, 0.94% hits;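 active = 50% or more with normal probe brightness, or confirmed in later tests; about a fifth of its hits are not listed in these tables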;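 also: calls also rest on retests at 20 µM and on dose response follow-up; 0% = protein and probe with vehicle and 100% = probe without protein; strong numbers were not always called active; many hits fall short of the cut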
Yeast UUG start – yeast start codon fidelity modulation; 350,000 compounds, 0.13% hits; S. cerevisiae UUG-firefly luciferase reporter, luminescence/redox ratio; activity score, % at 18.7 µM;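 active = replicate mean at a twofold rise or more, about +100% in these data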;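 also: firefly luciferase made from a UUG start codon reports start codon fidelity; reporter light over untreated wells divided by growth signal over untreated wells; some hits fall short of that in this replicate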
CSC inhib – blocks cancer stem cells; cancer stem cell-like cells viability, luminescence; inhibition, % at 7.5 µM; 300,000 compounds, 1.1% hits;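 active = mean at 75% or more and at least half the replicates too; tested in HMLE shEcad cells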;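 also: 0% = median of negative and 100% = median of positive control wells; the first replicate is given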
Rce1 inh – blocks yeast Ras-converting enzyme. Q03530. yeast membranes, quenched prenylated peptide cleavage fluorescence. calls only. 290,000 compounds, 0.27% hits. AID 2563;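 active = fall in fluorescence gain of 50% or more versus controls, with final raw signal at or below 3038400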;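 also: plate controls were neutral control wells for no effect and wells lacking membranes for full effect; tested at 10 µM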
Target sequence (Q03530 whole entry, looked up): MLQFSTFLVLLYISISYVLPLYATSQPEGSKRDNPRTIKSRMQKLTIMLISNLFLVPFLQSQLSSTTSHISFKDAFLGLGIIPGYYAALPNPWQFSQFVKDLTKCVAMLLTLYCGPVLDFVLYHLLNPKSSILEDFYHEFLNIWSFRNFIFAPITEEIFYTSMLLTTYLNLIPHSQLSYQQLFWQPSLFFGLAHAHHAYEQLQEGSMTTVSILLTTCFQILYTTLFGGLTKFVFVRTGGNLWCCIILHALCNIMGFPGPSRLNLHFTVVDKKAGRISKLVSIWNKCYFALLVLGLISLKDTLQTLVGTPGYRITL
PABP FP inh – PABP-poly(A) binding inhibition; PABP-poly(A) RNA binding, fluorescence polarization; 290,000 compounds, 1% hits; inhibition, % at 35 µM; P11940;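 active = 50% or more with normal probe brightness, or confirmed in later tests; about a fifth of its hits are not listed in these tables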;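 also: calls also rest on retests at 20 µM and on dose response follow-up; controls were probe without protein and protein plus probe with vehicle; some compounds called inactive have numbers as strong as hits; many hits fall short of the cut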
Target sequence (P11940 whole entry, looked up): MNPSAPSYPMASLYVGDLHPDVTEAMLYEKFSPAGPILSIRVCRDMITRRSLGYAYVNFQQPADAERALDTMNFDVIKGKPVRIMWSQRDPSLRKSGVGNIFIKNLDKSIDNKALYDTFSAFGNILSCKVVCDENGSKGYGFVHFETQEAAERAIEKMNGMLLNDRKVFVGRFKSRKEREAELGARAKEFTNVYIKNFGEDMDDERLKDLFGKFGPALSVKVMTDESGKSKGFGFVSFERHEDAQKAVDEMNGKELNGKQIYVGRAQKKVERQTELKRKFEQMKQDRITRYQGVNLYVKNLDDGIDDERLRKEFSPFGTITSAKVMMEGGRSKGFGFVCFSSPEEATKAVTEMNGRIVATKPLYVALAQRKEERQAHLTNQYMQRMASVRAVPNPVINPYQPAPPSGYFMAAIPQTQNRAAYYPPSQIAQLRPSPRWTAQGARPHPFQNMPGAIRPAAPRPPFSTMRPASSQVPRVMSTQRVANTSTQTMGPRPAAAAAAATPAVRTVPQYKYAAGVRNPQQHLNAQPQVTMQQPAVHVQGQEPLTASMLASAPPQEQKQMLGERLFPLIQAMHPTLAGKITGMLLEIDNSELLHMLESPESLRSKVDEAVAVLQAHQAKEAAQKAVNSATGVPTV
MT1-MMP act inh – blocks activation of human MT1-MMP. HT1080 RFP-PRO-GFP cells, GFP/RFP ratio fluorescence, overnight; percent of plate control window, DMSO zero. GFP/RFP ratio change, % at 20 µM. AID 651647. P50281. 360,000 compounds, 0.061% hits;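 active = GFP/RFP ratio change of at least 30% with cell ATP level not reduced by more than half and red fluorescence within 50% of control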; also: strong numbers were not always called active
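Test system: HT1080 RFP-PRO-GFP cells; Benchmarks: DMSO and RFP-L50D-GFP cell wells; Timing: cells overnight before dosing, compound overnight, 37 °C, 5% CO2; Compound: one 20 µM compound dose with 1% DMSO; Read-out: GFP/RFP fluorescence ratio.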
Env fusion inh – HIV envelope-mediated fusion inhibition; AID 651610; 360,000 compounds, 1.1% hits; inhibition, % at 12.3 µM; HeLa-JRFL Env/CEM21 cell fusion, luciferase;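 active = mean replicate inhibition score of at least 50 and every replicate individually at or above 50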;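 also: 0% = plate neutral controls and 100% = maraviroc near 300 nM; one replicate is shown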
MT1-MMP act inh RFP – recorded beside MT1-MMP act inh, whose call it bears; RFP signal change, %; measured here: RFP expression control read;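 0 = vehicle wells; hits needed this value within 50% of zero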
* marks the source's active call; other numbers are inactive results; i = inactive; nt = not tested or not shown; & = joins results of further samples. These rows are one share of the data, so the mix of outcomes need not match the whole.

SMILES	eIF4H FP inh	Yeast UUG start	CSC inhib	Rce1 inh	PABP FP inh	MT1-MMP act inh	MT1-MMP act inh RFP	Env fusion inh
CS(=O)(=O)c1ccc(Cl)c(NC(=O)COC(=O)CCN2C(=O)C3CC=CCC3C2=O)c1 (configuration not stated)	nt	-16	nt	nt	nt	0	4	9
CC(=O)N1CCN(c2ccc(NCc3cccc(C)c3)cc2)CC1	nt	-27	16	nt	nt	12	-3	-17
CCOc1ccc(N(CC(=O)NCCCOC)S(C)(=O)=O)cc1	1	-13	2	i	-12	5	5	nt
Cc1ccc(C)c(COC(=O)c2cc(S(=O)(=O)N3CCCCC3)ccc2N2CCOCC2)c1	nt	-15	23	i	nt	-5	-8	1
CN(CC(=O)Nc1cccc(F)c1)C(=O)C1CC(=O)N(CCc2ccccc2)C1 (configuration not stated)	nt	7	-7	i	nt	-5	1	0
O=C1OCCC1Sc1nnc(-c2ccc3c(c2)OCO3)n1-c1ccccc1 (configuration not stated)	8	-5	-5	i	-5	6	3	-56
Clc1ccc2nsnc2c1NC1=NCCN1	nt	-19&-7	-13&-2	i	nt	2&3	5&11	2&15
Cn1c(=O)[nH]c(=O)c2c1nc(CN1CCN(c3ccc(F)cc3)CC1)n2CCCc1ccccc1	-9	-9	-4	i	-13	-7	0	21
COc1ccccc1C(CNC(=O)C(C)Oc1ccc(Br)cc1)N1CCCC1 (configuration not stated)	nt	nt	4	i	nt	-1	0	32
COC(=O)C1=C(NC(=O)c2ccc(C)c(C)c2)CCS1	1	-11	2	i	0	-4	-3	-47
CCC(=O)N1CCc2cc(S(=O)(=O)CCC(=O)N3CCN(c4ccc(F)cc4)CC3)ccc21	5	-6	-9	i	-2	2	-5	23
O=C(Cc1cccs1)N1CCCC(c2nc(-c3ccc(S(=O)(=O)N4CCCC4)cc3)no2)C1 (configuration not stated)	0	-4	0	i	0	3	-5	19
Cc1cc(C)c2[nH]c(=O)c(C(c3nnnn3CC3CCCO3)N3CCC(C)CC3)cc2c1 (configuration not stated)	7	-16	nt	i	24	1	-2	38
COC(=O)CCC(=O)Nc1ccc(S(=O)(=O)N2CCCCCC2)cc1	-9	0	-6	i	13	-2	2	-101
CCC(OC(=O)c1nsc(Cl)c1Cl)C(=O)NC(C)(C)CC (configuration not stated)	-16	-5	-10	i	-4	2	-1	4
Cc1ccccc1C(=O)c1cccn1CC(=O)NCc1ccccc1Cl	-2	-13	nt	i	12	0	1	-23
COc1ccc2c3n([n+]([O-])c2c1)CCN=C3c1ccc(Cl)cc1	nt	2	-10	nt	nt	-2	6	-13
Cc1ccc(NC(=O)COC(=O)c2ccc(CN3CCCC3=O)cc2)cc1C	nt	12	nt	nt	nt	-5	3	7
CCOc1ccccc1N=C1NC(=O)CS1	-6	-12	-11	i	-2	-13	8	1
COCCNC(=O)c1ccc(N(C)S(=O)(=O)c2ccc(OC)c(OC)c2)cc1	2	-18	-8	i	9	1	2	nt
CC1CCCCN1Cc1ccc(N)cc1 (configuration not stated)	-1	nt	-2	i	0	1	4	-15
CCNC(=O)Nc1cc2nc(C)n(Cc3ccc(Br)cc3)c2nc1C	-2	-16	-11	i	6	-4	0	nt
CCn1ncc(Br)c1C(=O)Nc1ccc(OC(F)(F)F)cc1	-7	-14	-2	i	7	0	2	-11
O=C(Cn1cnc2c(nc3n2CCCCC3)c1=O)Nc1cccc(C(F)(F)F)c1	-2	-9	-11	i	-2	1	-1	12
Cc1c(NC(=S)NC(=O)COc2ccccc2)c(=O)n(-c2ccccc2)n1C	7	-20	6	i	6	7	8	-4

Entries of single compounds from above:
Entry for CCC(OC(=O)c1nsc(Cl)c1Cl)C(=O)NC(C)(C)CC (configuration not stated) → eIF4H FP inh = -16; Yeast UUG start = -5; CSC inhib = -10; Rce1 inh = i; PABP FP inh = -4; MT1-MMP act inh = 2; MT1-MMP act inh RFP = -1; Env fusion inh = 4
Entry for Clc1ccc2nsnc2c1NC1=NCCN1 → eIF4H FP inh = nt; Yeast UUG start = -19&-7; CSC inhib = -13&-2; Rce1 inh = i; PABP FP inh = nt; MT1-MMP act inh = 2&3; MT1-MMP act inh RFP = 5&11; Env fusion inh = 2&15

The list goes on.
SMILES	eIF4H FP inh	Yeast UUG start	CSC inhib	Rce1 inh	PABP FP inh	MT1-MMP act inh	MT1-MMP act inh RFP	Env fusion inh
O=C(COC(=O)c1cncc(Br)c1)NCc1ccc(Cl)cc1	0	-15	-6	i	-2	-3	0	-3
C[C@@H](C(=O)Nc1ccc2ccccc2c1)[C@H]1C[C@]1(C)[C@H](NC(=O)OCc1ccccc1)c1ccccc1	-7	-13	-20	i	-2	-4	-8	-2
COc1ccc(S(=O)(=O)Nc2cccc(-c3ccc(N4CCCCCC4)nn3)c2)cc1OC	nt	4	-3	i	nt	0	-15	-34
CCOC(=O)N1CCC(NC(=O)c2ccc3c(c2)N(Cc2ccccc2)CCS3)CC1	-12	0	16	i	-7	-2	-12	9
Cc1ncc([N+](=O)[O-])n1Cc1cccc(F)c1	-6	nt	nt	i	4	0	2	0
COc1ccc(CC(=O)Nc2nc(-c3cc(OC)ccc3OC)cs2)cc1	-6	nt	-2	i	-9	-3	-9	-12
O=C(Nc1cc(Br)ccc1O)c1cnn2c(C(F)F)cc(C3CC3)nc12	-1	nt	3	i	-11	0	3	12
CC(=O)Nc1cc(S(=O)(=O)C(F)(F)F)ccc1Cl	-6	-17	-3	i	6	5	3	nt
O=C(CCS(=O)(=O)Cc1ccccc1)N1CCc2ccccc2C1	-4	-12	-1	i	-9	-8	1	nt
CCN(CC(=O)Nc1ccccc1C(F)(F)F)C(=O)c1cccc(S(=O)(=O)N2CCN(C)CC2)c1	nt	0	-1	i	nt	1	-1	21
CN(C(=S)NC(=O)C1(C)CC1(Cl)Cl)c1ccccc1 (configuration not stated)	-8	-22	-7	i	14	6	6	-24
CC(=O)c1ccc(Nc2ncnc3c2oc2ccccc23)cc1	-13	-13	4	i	-5	3	3	nt
CC(C(=O)N=Nc1c(O)n(C)c2ccc(Br)cc12)n1cnc2ccccc2c1=O (configuration not stated)	1	nt	-20	i	2	nt	nt	-57
CN1CCN(Cc2c(O)ccc3c(-c4ccccc4)cc(=O)oc23)CC1	-10	-12	nt	i	-1	-3	1	-42
CCOc1ccc2[nH]c(=O)c(C(c3nnnn3C3CCCCC3)N3CCN(C)CC3)cc2c1 (configuration not stated)	-3	-14	13	nt	-6	-3	1	-18
Cc1ccc(S(=O)(=O)N2C[C@@H]3[C@H]4CC[C@H](C4)[C@@H]3[C@@H](C)[C@@H]2c2cn(Cc3ccccc3)c3ccc(F)cc23)cc1	nt	-4	nt	nt	nt	-8	-16	43
COc1ccc(/C=C2\N=C(c3c(-c4ccccc4)noc3C)OC2=O)cc1OC	1	3	-20	i	-2	8	1	nt
Cc1ccc(N/C=C(/C#N)c2ccsc2)cc1	-9	-7	nt	i	2	-1	-1	nt
COCc1c(C(=O)N/N=C\c2cccnc2)nnn1-c1nonc1N	-5	-10	nt	i	8	-5	2	7
COc1cccc(CNC(=O)c2cccc(NC(=O)CC3SC(N4CCCCC4)=NC3=O)c2)c1 (configuration not stated)	nt	16	-1	nt	nt	7	-9	-359
CCN(C(=O)c1ccc2c(c1)OCO2)C1CCS(=O)(=O)C1 (configuration not stated)	nt	-6	9	i	nt	3	5	13
COC(=O)c1c(C(=O)NCc2ccccc2)ncn1CC(O)COc1ccccc1 (configuration not stated)	0	-12	12	i	4	3	2	nt
COc1ccccc1NS(=O)(=O)c1cccc(NC(=O)NCCCl)c1	-10	nt	-5	i	-4	4	-2	7
CC1CCN(c2nc3c(c(=O)[nH]c(=O)n3C)n2CCSc2nc3ccccc3o2)CC1	2	nt	nt	i	5	nt	nt	nt
CC(C)(C)C(=O)NC(=S)N1CCc2ccccc21	-13	nt	-16	i	-17	3	6	-7

Among those listed so far, these contain a thiophene ring, fused or not.
SMILES	eIF4H FP inh	Yeast UUG start	CSC inhib	Rce1 inh	PABP FP inh	MT1-MMP act inh	MT1-MMP act inh RFP	Env fusion inh
O=C(Cc1cccs1)N1CCCC(c2nc(-c3ccc(S(=O)(=O)N4CCCC4)cc3)no2)C1 (configuration not stated)	0	-4	0	i	0	3	-5	19
Cc1ccc(N/C=C(/C#N)c2ccsc2)cc1	-9	-7	nt	i	2	-1	-1	nt

Following part:
SMILES	eIF4H FP inh	Yeast UUG start	CSC inhib	Rce1 inh	PABP FP inh	MT1-MMP act inh	MT1-MMP act inh RFP	Env fusion inh
CN(Cc1ccccc1)c1ncnc2sccc12	3	-11	-4	i	6	-5	-19	5
Cc1ccc(S(=O)(=O)N2CCC(C(=O)Nc3ccncc3)CC2)cc1	nt	-14	15	i	nt	8	-2	-14
Cn1cc(Br)c(C(=O)N2CCc3ccccc32)n1	-5	-13	4	i	3	-6	5	5
O=C(NCC(=O)N1CCN(c2ccccc2O)CC1)c1cccs1	nt	-10	-6	i	nt	2	-1	-26
C=CCn1c(SCC(=O)Nc2ccccc2OC)nnc1-c1ccco1	0	nt	nt	i	-14	nt	nt	-4
O=C1c2ccccc2C(=O)C1(CO)c1ccc(OC(F)F)cc1	-9	-19	13	i	-3	5	2	-46
Cc1noc(C)c1S(=O)(=O)NCc1ccc2c(c1)OCO2	2	-17	-6	i	-7	3	2	-48
COc1cc(C(=O)NCc2nnc(SCC(=O)Nc3c(C)cc(C)cc3C)o2)cc(OC)c1OC	-5	-16	-18	i	1	3	2	-7
CCn1cc(C(=O)NCCC(C)C)c(=O)c2cc(S(=O)(=O)N3CCCCC3)ccc21	7	-4	-1	i	-7	-2	-5	nt
O=C1CNC(=S)N1CCOc1ccccc1	-6	2	-12	i	-8	1	4	-10
CCc1nc(SCC(=O)Nc2nnc(CC)s2)c2c(=O)n(C)c(=O)n(C)c2n1	-8	0	-5	i	7	-8	-16	-1
C/C=C1\NC(=O)[C@H](CC(N)=O)N(C)C(=O)C([C@@H](C)O)NC(=O)C(CCCc2ccc(OC)cc2)NC(=O)[C@H](C(C)C)NC(=O)/C(=C\C)NC(=O)[C@H](O)[C@@H](C[C@@H](O)CCCCCCC)NC(=O)[C@H](C)NC(=O)CN(C)C(=O)[C@H](CCC(N)=O)NC1=O (some centres not stated)	nt	13	nt	nt	nt	0	1	1
CC(=O)NC1CC2CCCC(C1)N2C(=O)Nc1ccc(Cl)cc1 (configuration not stated)	nt	-15	nt	nt	nt	-1	1	-3
CN(Cc1ccc2nsnc2c1)C(=O)C1CCC(=O)N(CCc2ccccc2)C1 (configuration not stated)	nt	8	nt	nt	nt	5	-2	12
O=C(NCC(c1ccc(F)cc1)N1CCOCC1)c1cc(F)c(F)c(F)c1F (configuration not stated)	6	nt	-29	i	-1	-2	4	-29
CCCCn1c(N)c(N(Cc2ccccc2OC)C(=O)c2ccc(N3CCCC3=O)cc2)c(=O)[nH]c1=O	nt	-14	-1	i	nt	-2	2	2
NC(=O)COc1ccc(Nc2nnc(-c3ccc(O)cc3)c3ccccc23)cc1	36	-17	-11	i	11	4	5	3
CC1C(c2ccccc2)N(C)CCC12NC(=O)NC2=O (configuration not stated)	-3	-12	16	i	-1	-1	0	-10
CCN1CCN(Cc2c(OC)ccc3ccccc23)CC1	2	-10	-16	i	13	-3	3	-22
O=c1c2c(nc3cc(-c4ccccc4Cl)[nH]n13)CCS2	45	nt	24	i	33	-12	5	-8
O=C(CC1C(=O)NCCN1Cc1ccccc1)NC1CCCCC1 (configuration not stated)	nt	-2	nt	nt	nt	4	3	-27
CC(=O)/C(N)=N/Nc1cccc(Cl)c1	-2	nt	38	i	2	-4	5	-32
COc1ccc(OC)c(NC(=O)Nc2nc(C(N)c3ccccc3Cl)cs2)c1 (configuration not stated)	nt	-18	nt	nt	nt	-1	-4	-55
CC1(CCc2ccccc2)NC(=O)N(CC(=O)Nc2ccc3c(c2)OCCO3)C1=O (configuration not stated)	-12	nt	-4	i	2	0	1	-4
COc1ccc(-n2nc(C(=O)NCC(=O)NCCCN3CCN(C)CC3)c3ccccc3c2=O)cc1	-3	-12	-6	i	0	3	1	-9

Screens: PubChem, several laboratories
